MbtI inh: inhibitors of Mycobacterium tuberculosis siderophore enzyme MbtI; inhibition, %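 (about 17 µg/mL by stock and volumes)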; purified MbtI enzyme, fluorescence intensity read-out; AID 493033; hit rate 0.89% among 100,000;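 active means above 50% in both replicates, above 80% if mildly self-fluorescent; inactive means the rest, strongly fluorescent compounds included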;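 further: 0% = mean of negative and 100% = mean of positive controls; one replicate is shown; some compounds called inactive have numbers as strong as hits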
Target sequence (P9WFX0 whole entry, looked up): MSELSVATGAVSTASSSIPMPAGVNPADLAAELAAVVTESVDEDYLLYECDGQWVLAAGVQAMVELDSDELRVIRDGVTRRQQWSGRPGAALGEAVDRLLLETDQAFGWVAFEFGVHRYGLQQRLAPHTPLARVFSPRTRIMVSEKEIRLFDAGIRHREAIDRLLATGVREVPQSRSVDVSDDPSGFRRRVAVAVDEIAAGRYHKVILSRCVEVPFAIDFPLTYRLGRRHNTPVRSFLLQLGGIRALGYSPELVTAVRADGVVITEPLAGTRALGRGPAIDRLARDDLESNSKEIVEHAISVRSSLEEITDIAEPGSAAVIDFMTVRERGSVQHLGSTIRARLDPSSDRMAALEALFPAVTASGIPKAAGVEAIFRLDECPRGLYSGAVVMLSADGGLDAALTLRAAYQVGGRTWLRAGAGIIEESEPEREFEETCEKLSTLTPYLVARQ
Mtb MenB inh: blocks the Mycobacterium tuberculosis MenB enzyme | hit rate 0.43% among 100,000 | AID 540299 | MenB enzyme assay, absorbance read-out; some hits fall short of the stated cut | inhibition, %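 (about 12 µg/mL by stock and volumes)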;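 active means mean of two replicates above 30%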;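 further: 0% = no compound and 100% = wells with inactive enzyme; the first replicate is given; strong numbers were not always called active; inactives centre near -10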
Target sequence (P9WNP5 whole entry, looked up): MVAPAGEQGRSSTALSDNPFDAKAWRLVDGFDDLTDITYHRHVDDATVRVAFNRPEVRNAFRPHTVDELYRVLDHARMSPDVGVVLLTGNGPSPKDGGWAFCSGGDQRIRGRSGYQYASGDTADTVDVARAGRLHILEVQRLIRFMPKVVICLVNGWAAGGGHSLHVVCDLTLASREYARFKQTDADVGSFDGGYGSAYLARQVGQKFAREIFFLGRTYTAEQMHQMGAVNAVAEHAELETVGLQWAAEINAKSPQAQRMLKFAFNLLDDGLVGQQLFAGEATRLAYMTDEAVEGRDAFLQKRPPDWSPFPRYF
PV pol inh: poliovirus RNA polymerase inhibition; P03300; poliovirus polymerase elongation, fluorescence polarization; stronger effect = lower value; % elongation, % (compound at 16.7 µg/mL); hit rate 0.66% among 150,000; AID 588519; in the data active means % elongation below about 90%; further: some results filed as inactive read as strong as hits
PV pol inh intensity: second read-out of PV pol inh, no call of its own (marks repeat the call); % elongation; measured here: total intensity read-out; formula for this scale not given here;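 total fluorescence in place of polarization; lower means less elongation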
* hit, by the source's call; nt = no result given; & = joins results of further samples.

No.	mol	MbtI inh	Mtb MenB inh	PV pol inh	PV pol inh intensity
1	COc1ccc(C2CC(=O)N(CC(=O)NCc3ccco3)c3ccccc3S2(=O)=O)cc1OC (configuration not stated)	7.5	-4.0	100.0	104.0
2	NNC(=O)c1cc2c(s1)-c1ccccc1CC2	-11.5	5.1	103.0	108.0
3	O=C(Nc1ccc(-c2nc3ncccc3o2)cc1)c1ccc(-c2cc3ccccc3oc2=O)cc1	-8.4	-10.2	100.0	102.0
4	Cc1cc(C#N)c2c(C)ccc(C(C)C)cc1-2	-6.5	-15.6	103.0	109.0
5	O=C(c1ccco1)c1cn(Cc2ccccc2)c2ccccc12	28.6	-43.5	102.0	103.0
6	N#Cc1ccc(CSC2=NCCN2)cc1	-1.6	nt	102.0	104.0
7	Cc1nn(-c2ccccc2)c(C)c1C(=O)OCC(=O)N(C)C1CCS(=O)(=O)C1 (configuration not stated)	-4.7	-18.0	95.0	103.0
8	CC1CCCC(C)N1C(=O)Cc1noc2ccccc12 (configuration not stated)	-5.5	-3.8	104.0	100.0
9	COCCN1Cc2cccc(C(=O)NCCCN3CCCC3=O)c2C1=O	-3.4	-54.8	103.0	105.0
10	Nc1nc(-c2ccccc2)cn1Nc1ccccc1	-19.1	nt	103.0	106.0
11	COc1cc(C(=O)N/N=C(\C)c2ccc(-n3ccnc3)cc2)cc(OC)c1OC	14.8	-20.9	106.0	103.0
12	Clc1ccc(-c2csc(-c3ccc4c(c3)CCO4)n2)s1	-13.3	-2.9	101.0	102.0
13	O=C(NCc1ccco1)C(c1ccccc1)N(C(=O)Cn1nnc2ccccc21)C1CCCC1 (configuration not stated)	3.7	-24.8	103.0	102.0
14	O=C(Nc1ccccc1)c1cccc(S(=O)(=O)N2CCOCC2)c1	4.5	16.1	100.0	101.0
15	Cc1cccc(C(=O)Nc2ccccc2C#N)c1	54.8	26.2	100.0	102.0
16	CSc1nc(-c2ccc(Cl)cc2)nn1C(C)=O	97.5	-18.5	99.0	103.0
17	CCOc1nc(OCC)nc(-n2cc(-c3ccccc3)nn2)n1	nt	-16.0	108.0	106.0
18	O=S(=O)(c1cccc2nsnc12)N1CCC(O)(c2cccc(C(F)(F)F)c2)CC1	-8.8	-6.5	100.0	99.0
19	O=C(COC(=O)C1CCC(=O)N1)Nc1ncc(C(F)(F)F)cc1Cl (configuration not stated)	41.0	0.9	107.0	119.0
20	Cc1cc2c(cc1C)/C(=C\C(N)=O)NC(C)(C)C2	nt	-27.5	99.0	104.0
21	COCCn1c(CCCO)nc2ccccc21	-0.6	10.7	103.0	103.0
22	Cc1csc2sc(-c3ccnc(SCC(=O)NCc4ccccc4)n3)c(C)c12	-7.1	-9.5	108.0	107.0
23	O=C1Nc2ccccc2O/C1=C\c1ccc(C(=O)NCc2ccco2)cc1	-338.6	-31.0	98.0	102.0
24	N#CCc1ccc(O)cc1	-9.2	-19.8	104.0	91.0
25	C=CCn1c(P(C)(=O)N2CCCCC2)nc2ccccc21 (configuration not stated)	-8.7	-3.6	107.0	114.0

Only PV pol inh (seven entries from above):
item | SMILES | PV pol inh
9 | COCCN1Cc2cccc(C(=O)NCCCN3CCCC3=O)c2C1=O | 103.0
17 | CCOc1nc(OCC)nc(-n2cc(-c3ccccc3)nn2)n1 | 108.0
19 | O=C(COC(=O)C1CCC(=O)N1)Nc1ncc(C(F)(F)F)cc1Cl (configuration not stated) | 107.0
12 | Clc1ccc(-c2csc(-c3ccc4c(c3)CCO4)n2)s1 | 101.0
21 | COCCn1c(CCCO)nc2ccccc21 | 103.0
14 | O=C(Nc1ccccc1)c1cccc(S(=O)(=O)N2CCOCC2)c1 | 100.0
1 | COc1ccc(C2CC(=O)N(CC(=O)NCc3ccco3)c3ccccc3S2(=O)=O)cc1OC (configuration not stated) | 100.0

Later entries
No.	mol	MbtI inh	Mtb MenB inh	PV pol inh	PV pol inh intensity
26	Cc1ccc(C2CC(=O)c3c(n[nH]c3C)C2)cc1 (configuration not stated)	-2.2	1.4	100.0	102.0
27	COC(=O)C1CCN(C2=NS(=O)(=O)c3ccccc32)CC1	11.4	2.0	103.0	96.0
28	CCOC(=O)c1oc2c(O)c(O)ccc2c(=O)c1-c1nncn1-c1ccccc1	3.0	-37.0	97.0	100.0
29	CC(C)N(c1ccccc1)c1ccc(NC(=S)NCCN(C)C)cc1	-0.7	-19.4	98.0	96.0
30	COCN(C#N)c1nc(OC)nc(OC)n1	-6.5	5.3	101.0	103.0
31	CCCS(=O)(=O)c1nc2ccccc2n1CCN1CCOCC1	9.1	-17.4	104.0	107.0
32	OC(CNc1nc(C(F)(F)F)nc2ccccc12)c1ccccc1 (configuration not stated)	-11.0	-10.6	101.0	107.0
33	CC(Sc1nc(N)nc(N)n1)C(=O)NC1(C#N)CCCCC1 (configuration not stated)	-0.8	-23.4	103.0	103.0
34	CN1CCC(O)(c2cccs2)C(C(=O)c2cccs2)C1 (configuration not stated)	16.0	8.6	101.0	101.0
35	CC(C)C1Cc2c(sc3nc(SCc4ccc(Cl)c(Cl)c4)nc(N)c23)CO1 (configuration not stated)	-5.4	-13.4	103.0	106.0
36	COc1ccccc1C(=O)N(Cc1ccccc1F)C1CCS(=O)(=O)C1 (configuration not stated)	20.1	17.3	102.0	99.0
37	N#Cc1cccc(NC(=O)Nc2cccs2)c1	12.6	11.5	101.0	103.0
38	O=C(O)c1cc(=O)c2cc(Br)ccc2o1	nt	-5.4	106.0	100.0
39	Nc1nc2ccc3c(c2s1)CCCC3	2.1	-70.6	103.0	105.0
40	CCC(=O)c1cc2c(cc1NC(=O)c1cccc(Cl)c1)OCCO2	11.3	10.8	101.0	104.0
41	O=C(CCn1c(=S)oc2ccccc21)NC1CCCCC1	-14.6	2.2	99.0	103.0
42	O=C(Nc1ccc(N2CCN(c3ccc(C(F)(F)F)cn3)CC2)nc1)c1ccco1	-3.6	5.2	105.0	111.0
43	C/C(=N\N)c1nnn(-c2nonc2N)c1C	nt	-2.8	103.0	97.0
44	COc1cc(/C=C2/C(=N)N3N=C(c4ccccc4C)SC3=NC2=O)ccc1OC(=O)c1ccco1	-14.9	-47.4	105.0	102.0
45	O=C(/C=C/c1ccc(O)c(O)c1)OCCc1ccccc1	-60.6	-2.2	103.0&100.0	99.0&99.0
46	CC(C)(C)NC(=O)Cn1nnc(-c2cccc(C(F)(F)F)c2)n1	-2.0	-27.7	102.0	105.0
47	Cc1ccccc1OCC(=O)Nc1cccc(N2C(=O)c3ccccc3C2=O)c1	nt	-27.7	102.0	95.0
48	Nc1cc(Cl)ccc1NCc1ccccc1	-3.4	nt	110.0	137.0
49	Cc1ccc(SCc2cn3cccnc3n2)cc1	-7.4	-8.5	103.0	106.0
50	Cc1c(C(N)=O)nnn1-c1ccc(Cl)cc1	-27.0	11.5	103.0	102.0
51	CCCN(CCC)S(=O)(=O)c1ccc(C(=O)NCc2ccc3c(c2)OCO3)cc1	nt	-20.4	108.0	109.0
52	CC(C)n1cc(-c2noc(-c3cccs3)n2)c(=O)n(Cc2ccccc2)c1=O	-6.2	-24.8	106.0	112.0
53	O=C(COC(=O)c1ccccc1)NC1CCCCC1	1.0	-4.1	100.0	103.0
54	Cc1nn(-c2ccccc2)c(-n2cccc2)c1C(=O)NC(C)c1ccc2c(c1)OCCO2 (configuration not stated)	-4.2	-14.3	101.0	103.0
55	CCN(CC)CC(=O)Nc1nc2ccc(OC)cc2s1	7.3	-32.7	100.0	97.0
56	FC(F)(F)COc1nc(N2CCOCC2)nc(N(c2ccccc2)c2ccccc2)n1	7.2	-102.3	100.0	103.0
57	N#CCCn1cc(C(=O)O)c(-c2ccc(Cl)cc2)n1	-7.7	-52.3	106.0	99.0
58	Cc1ccc(-c2nc(Nc3ccccc3F)sc2C)cc1	12.7	-32.8	103.0	107.0
59	Cc1ccc(C(C(=O)O)N2Cc3ccccc3C2=O)cc1 (configuration not stated)	-2.3	-22.4	99.0	104.0
60	CCC(C)OC(=O)C1=C(C)NC2=C(C(=O)CC(c3ccc(OC)c(OC)c3)C2)C1c1ccc(C)o1 (configuration not stated)	nt	-20.4	105.0	103.0
61	COC(=O)c1ccc(C(c2c(N)n(CC(C)C)c(=O)[nH]c2=O)N2CCN(S(=O)(=O)c3ccc(C)cc3)CC2)cc1 (configuration not stated)	8.1	-15.3	nt	nt
62	Cc1cc(-c2csc(-c3ccccn3)n2)c(C)n1Cc1ccco1	30.3	-18.5	101.0	100.0
63	Cc1c(C(=O)Nc2ccncc2)cc(-c2ccccc2)n1CCCN1CCOCC1	-2.6	-1.2	102.0	101.0
64	CCCN(CCC)C(=O)Cn1nc(CC)n2c(cc3sc(C)cc32)c1=O	-11.1	-1.2	101.0	106.0
65	CCN1C(=O)CC(NCc2ccc3c(c2)OCO3)C1=O (configuration not stated)	-15.4	-16.0	102.0	102.0
66	c1cncc(C2N3CCCN2CC3)c1 (configuration not stated)	1.4	19.1	101.0	102.0
67	O=C(CSc1cn(CCNC(=O)c2cccs2)c2ccccc12)NC1CCCC1	8.4	-9.7	100.0	105.0
68	C[N+]1(CCOS(=O)C23CC4CC(CC(C4)C2)C3)CCOCC1 (configuration not stated)	-8.8	nt	102.0	102.0
69	CCn1c(-c2cc(OC)ccc2OC)cs/c1=N\N=C\c1ccc(O)c(OC)c1	13.4	-46.9	99.0	94.0
70	CC(C)(C)c1cc(C(F)(F)F)c2c(N)c(C(=O)NC3CC3)sc2n1	nt	-11.9	45.0	245.0
71	COc1cccc(NS(=O)(=O)c2ccc3[nH]cc(C(=O)N(C)Cc4ccccc4)c(=O)c3c2)c1	-41.5	-5.9	102.0	108.0
72	O=C(Cn1cnc(S(=O)(=O)N2CCCCC2)c1)N1CCC(Cc2ccccc2)CC1	-13.1	-15.3	102.0	101.0
73	COc1cccc(-c2ncc(-c3ccccc3)o2)c1	112.9	-22.0	111.0	105.0
74	CCC(C)NC(=O)C1CCC(CNS(=O)(=O)c2ccccc2)CC1 (configuration not stated)	-15.2	7.1	104.0	106.0
75	COc1ccc2c(c1OC)C(=O)N1c3ccccc3N=C(c3ccc(Br)cc3)CC21 (configuration not stated)	nt	10.5	102.0	104.0

Carrying on.
No.	mol	MbtI inh	Mtb MenB inh	PV pol inh	PV pol inh intensity
76	COC(=O)CSC(=S)N1C(C)CCCC1C (configuration not stated)	-0.4	-41.3	106.0	110.0
77	CC(=O)Nc1ccc(S(=O)(=O)N2CCN(c3nc4ccccc4s3)CC2)cc1	-6.0	-11.4	102.0	102.0
78	NC(=O)CSc1nnc(C2CC2)n1Cc1ccccc1	5.2	-21.5	100.0	101.0
79	CC(C)CC(=O)CC1(O)C(=O)Nc2ccccc21 (configuration not stated)	-0.8	3.5	104.0	106.0
80	CCc1ccc2ncc(S(=O)(=O)c3ccccc3)c(N3CCCC3)c2c1	1.4	-29.0	103.0	103.0
81	N#Cc1ccccc1CO/N=C(\N)c1nonc1N	0.1	-3.2	101.0	102.0
82	CN(C1CCCCC1)S(=O)(=O)N1CCCC(C(=O)O)C1 (configuration not stated)	-1.8	-11.1	104.0	107.0
83	CCCNC(=O)CSC1=NS(=O)(=O)c2ccccc2N1	-2.5	19.0	99.0	102.0
84	CC(C)=CCC(C)(C)CNc1ccc(C)cc1	-15.2	-12.6	99.0	99.0
85	CC/C(=N\NC(C)=O)c1ccc(OC(F)F)cc1	5.4	0.1	96.0	97.0
86	O=C(CN1C(=O)/C(=C\c2ccc(Cl)cc2)Sc2ccccc21)NCC1CCCO1 (configuration not stated)	3.3	-8.7	100.0	104.0
87	Cc1cccc(OCCC(=O)OCc2ncc(-c3ccccc3)o2)c1	7.0	-12.7	103.0	95.0
88	CC1(C)CC(=O)C=C(SCC(=O)Nc2cc(C(F)(F)F)cc(C(F)(F)F)c2)S1	-8.0	-46.0	105.0	112.0
89	CSC1=NCCCN1C(=O)c1c(-c2ccccc2Cl)noc1C	4.4	-15.9	98.0	93.0

Quoted at random: four compounds from above
No.	mol	MbtI inh	Mtb MenB inh	PV pol inh	PV pol inh intensity
76	COC(=O)CSC(=S)N1C(C)CCCC1C (configuration not stated)	-0.4	-41.3	106.0	110.0
86	O=C(CN1C(=O)/C(=C\c2ccc(Cl)cc2)Sc2ccccc21)NCC1CCCO1 (configuration not stated)	3.3	-8.7	100.0	104.0
87	Cc1cccc(OCCC(=O)OCc2ncc(-c3ccccc3)o2)c1	7.0	-12.7	103.0	95.0
78	NC(=O)CSc1nnc(C2CC2)n1Cc1ccccc1	5.2	-21.5	100.0	101.0

Compound activity as filed in PubChem BioAssay.
